# Assay outcomes from PubChem BioAssay.
# PINK1 modulator = A Quantitative High throughput Screen to Identify Chemical Modulators of PINK1 Expression; PINK1 immunofluorescence, high-content cytometry, 24 h; 410,000 tested, 0.2% active; AID 624263, 2012; Potency, µM (titrated, usually from 76.6 µM), inactives show at the highest dose activation (PINK1 increase), actives largely listed as activators; active = well fitted activation curve with a large enough effect; inconclusive = small, poorly fitted or top-dose-only effect; inactive = flat fitted curve, though single readings scatter; cell line not stated here;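 note: potency is the fitted concentration of half-maximal effect; % of control where 0% means no effect; nearly all actives have a fitted effect of over 65% in size; a mitochondrial uncoupler was the plate control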
#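 Stable cell line, 250 cells/well, 12 h attachment; compounds pinned at 5 concentrations, 24 h; CCCP control. Fixed with nuclear dye, primary antibodies 12 h at 10 degrees C, secondary plus cell stain; laser-scanning cytometer read.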
# Six1-Eya2 inh = qHTS Assay for Inhibitors of the Six1/Eya2 Interaction. 360,000 tested, 0.56% active. AlphaScreen GST-Six1/His-Eya2 binding, biochemical; active compounds read low; control for the full effect not named in the record. AID 651725, 2012. activity change, % (no concentration beside the values). Homeobox protein SIX1 (Homo sapiens) + Protein phosphatase EYA2 (Homo sapiens), …; in the data active = activity change below about -65%; inconclusive = about -30% to -65%; inactive = above about -30%; note: % is set by controls: 0 for no effect and ±100 for the full control effect
#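 AlphaScreen luminescence read after one hour at 37 °C in darkness. Pin-transferred compounds met GST-Six1 and His-Eya2 protein (5X stock 250 nM/500 nM) plus glutathione donor and Ni-chelate acceptor beads (5X, 50 ug/mL).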
# TRPML1 agonist = qHTS for Agonists of the Human Mucolipin Transient Receptor Potential 1 (TRPML1). Mucolipin-1 (Homo sapiens), Q9GZU1. AID 624414, 2012. activation, % (no concentration beside the values). TRPML1-expressing cells, Ca2+ dye fluorescence, FDSS; host cell line not named in the record; reference of the full effect not given here. 410,000 tested, 0.12% active; in the data active = activation above about 50%; inconclusive = about 30% to 50%; inactive = below about 30%; note: 0% is about no effect; the text of the record puts the active cut at 80%
# Target sequence (Q9GZU1 whole entry, looked up): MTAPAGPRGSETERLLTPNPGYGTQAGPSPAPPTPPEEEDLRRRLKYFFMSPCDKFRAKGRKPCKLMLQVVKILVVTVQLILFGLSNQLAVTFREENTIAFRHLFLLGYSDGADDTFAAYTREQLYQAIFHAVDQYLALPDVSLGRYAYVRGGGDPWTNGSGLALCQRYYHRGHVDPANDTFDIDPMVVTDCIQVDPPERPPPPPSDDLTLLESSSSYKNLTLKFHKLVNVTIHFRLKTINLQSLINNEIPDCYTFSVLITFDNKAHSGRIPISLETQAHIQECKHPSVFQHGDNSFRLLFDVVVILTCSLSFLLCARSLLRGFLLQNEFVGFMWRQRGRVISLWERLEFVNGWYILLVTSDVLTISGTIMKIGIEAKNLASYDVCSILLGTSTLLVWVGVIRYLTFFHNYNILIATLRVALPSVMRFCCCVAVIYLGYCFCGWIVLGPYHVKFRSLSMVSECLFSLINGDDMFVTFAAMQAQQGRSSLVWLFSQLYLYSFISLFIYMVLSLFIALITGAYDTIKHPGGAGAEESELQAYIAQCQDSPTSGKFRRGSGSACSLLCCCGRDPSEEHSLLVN
#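 Kinetic FDSS Ca2+ read in Tet-induced TRPML1-DL cells (ABD Ca8 dye plus quencher, 45-90 min RT loading): baseline, then compound, then 110 s agonist window; EC80 agonist 54-4 at 4uM final added afterwards for a 110 s antagonist window.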
# CtBP-E1A blk = qHTS Assay for Inhibitors of the CtBP/E1A Interaction. activity change, % (no concentration beside the values). AID 651724, 2012. 340,000 tested, 0.49% active. CtBP / adenovirus E1A interaction (AlphaScreen). AlphaScreen GST-E1A/His-CtBP binding, 1536-well; active compounds read low; control for the full effect not named in the record; in the data active means activity change below about -65%; inconclusive means about -30% to -65%; inactive means above about -30%; note: % is set by controls: 0 for no effect and ±100 for the full control effect
#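 In 5 uL wells, 23 nL compound meets equimolar GST-E1A and His-CtBP (5X stock 125 nM each) for 2 h, 37 °C. Beads (5X, 50 ug/mL) then 1 h, 37 °C, dark.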
# TRPML1 inh = qHTS for Inhibitors of the Human Mucolipin Transient Receptor Potential 1 (TRPML1) | Mucolipin-1 (Homo sapiens), Q9GZU1 | AID 624415, 2012 | activity change, negative = inhibition, % (concentration not given with the values) | TRPML1-inducible cells, Ca2+ dye fluorescence, FDSS; active compounds read low; inhibition of EC80 agonist-evoked calcium signal | 390,000 tested, 0.02% active; in the data active means activity change below about -50%; inconclusive means about -30% to -50%; inactive means above about -30%;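 note: stimulus is agonist 54-4 at its EC80 concentration; % is set by controls: 0 for no effect and ±100 for the full control effect; the text of the record puts the active cut at -80%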
#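 Calcium fluorescence in TRPML1-DL cells induced overnight with Tet: a 110 s read after compound pin addition, then a 110 s antagonist read after challenge with 54-4 at 4 uM final (EC80).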
# D2 ag = Beta-Arrestin HTS for Positive Allosteric Modulators of the Human D2 Dopamine Receptor: Agonists; DiscoveRx PathHunter D2 beta-arrestin, luminescence, 90 min; 100% = 57 uM dopamine signal; activation, % (test concentration not listed); D(2) dopamine receptor (Homo sapiens), P14416; 360,000 tested, 0.084% active; in the data active = activation above about 40%; inconclusive = about 15% to 40%; inactive = below about 15%; note: compound concentration not given in the record; the text of the record calls up to 30% inactive
# Target sequence (P14416 whole entry, looked up): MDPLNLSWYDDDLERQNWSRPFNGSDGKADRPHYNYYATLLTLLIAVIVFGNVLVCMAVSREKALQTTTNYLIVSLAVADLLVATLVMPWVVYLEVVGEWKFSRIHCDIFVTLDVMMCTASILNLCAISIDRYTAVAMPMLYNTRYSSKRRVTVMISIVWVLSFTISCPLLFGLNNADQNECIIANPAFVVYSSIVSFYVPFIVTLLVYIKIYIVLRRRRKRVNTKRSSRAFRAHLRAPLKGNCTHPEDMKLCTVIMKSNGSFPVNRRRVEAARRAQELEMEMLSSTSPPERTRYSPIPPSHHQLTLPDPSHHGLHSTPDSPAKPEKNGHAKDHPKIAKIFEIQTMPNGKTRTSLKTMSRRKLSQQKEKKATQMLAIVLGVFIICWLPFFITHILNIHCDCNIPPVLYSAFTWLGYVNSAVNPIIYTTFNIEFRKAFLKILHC
#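 Agonist mode: compounds alone added to overnight-plated D2 PathHunter cells for 90 min at 37 C, with 57 uM final dopamine (EC100) defining full response. Beta-arrestin recruitment detected by chemiluminescent reagent, read after 1 h at ambient temperature.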
# An asterisk follows results filed as active; ? = inconclusive; . = not tested or not shown; & = joins results of further samples; [ ] = another dose, or the depositor's remark. Compounds as they come; any-hit rate near 1%.
SMILES,PINK1 modulator,Six1-Eya2 inh,TRPML1 agonist,CtBP-E1A blk,TRPML1 inh,D2 ag
CCOC(=O)N1CCC(NC(=O)c2cc(S(=O)(=O)N3CCOCC3)ccc2F)CC1,4.1%[38.3 µM],0,0.0,-3,0,-1.1
C[C@@H]1CN[C@@H](CCO)/C1=C\c1ccccc1,-1.1%,-1,-0.4,9,-7,4.0
O=C(O)/C=C/C(=O)NNC(=O)c1cccc(Br)c1,-2.0%,-4,-0.4,-13,-9,-4.1
O=S(=O)(Nn1c(O)c(C=C2N=c3ccccc3=N2)sc1=S)c1ccccc1,-0.4%,-11,-1.0,0,0,-2.2
CCOc1ccc(C(=O)c2nc3c(n2O)CCCC3)cc1,?,-6,1.8,-16,-2,-3.9
COc1ccc(NC(=O)c2cc(-c3ccccc3)on2)cc1,1.1%,10,0.6,.,-5,-5.0
CCc1c(C)nc(SCC(=O)Nc2c(C)n(C)n(-c3ccccc3)c2=O)[nH]c1=O,8.7%[38.3 µM],2,-0.5,-2,2,-0.3
COc1ccc(-c2cc(C(=O)Nc3cc(Cl)ccc3O)no2)cc1,5.5%,3,1.6,5,-6,11
COc1ccc2c(c1OC)C(=O)N(c1cccc(NC(C)=O)c1)C2,2.4%,-3,0.3,-13,5,5.5
Cc1cc(C(=O)O)ccc1-n1c(C)cc(C=C2C(=O)c3ccccc3C2=O)c1C,0.4%,3,4.0,-4,17,-6.1
COC(=O)C1=C(C)NC(=O)CC1c1ccc(F)c(Br)c1 (centres undefined),5.8%[38.3 µM],0,-0.3,2,-7,-1.5
Nc1nnc(SCCCC(=O)c2ccc(Br)cc2)s1,-1.3%,1,3.6,-17,13,2.0
COC[C@H]1CCCN1c1ccc2c(c1)O[C@@H](COCc1ccccc1)CN([C@@H](C)c1ccccc1)S2(=O)=O,-1.0%,-12,0.1,-4,.,.
CC[C@H](CO)NCCN[C@H](CC)CO,6.3%,0,-0.4,-6,-2,3.4
Cc1nc(SCC(=O)c2ccc(Cl)s2)c2oc3ccccc3c2n1,14%,1,-0.8,0,-4,0.4
O=C(Nc1ccc(Cl)cc1C(F)(F)F)c1ccccc1,11%,3,-0.8,7,-15,-6.2
O=C(CN1CCN(c2ccc(F)cc2)CC1)N1N=CCC1c1ccccc1 (centres undefined),13%[38.3 µM],-6,-0.4,14,2,1.3
O=C(/C=C/c1cccs1)N1CCC2(CC1)Oc1ccc(Cl)cc1C(=O)C21CC(c2ccc(Cl)cc2)=NO1 (centres undefined),1.2%,-6,0.1,-3,3,-3.4
Cc1nn(Cc2ccc(C(=O)Nc3ccc(C(=O)OC(C)C)cc3)o2)c(C)c1Cl,25%[38.3 µM],0,1.8,2,29,3.7
CCC(COC)NCc1cn(-c2ccc(OC)cc2)nc1-c1cccc(F)c1 (centres undefined),3.5%,2,0.3,2,8,-1.3
COc1ccc(Nc2nc(NN)nc(C)c2[N+](=O)[O-])cc1,2.7%,-22,3.0,-3,34,3.9
COc1ccc2cc3cc(C(=O)NCCCN4CCOCC4)oc3nc2c1,0.4%,-20,-1.3,-17,0,-0.8
CCCn1c(=O)c2c(nc3n2CCN3Cc2ccco2)n(C)c1=O,2.4%,-20,0.0,?,18,1.9
Cc1ccnc(NC(=O)CNC(=O)c2ccc(C)s2)c1,6.4%,-4,0.0,-1,-2,-0.5
O=C(c1ccccc1F)N(Cc1cccnc1)Cc1cc2cc3c(cc2[nH]c1=O)OCCO3,0.2%,1,-0.2,-22,-5,-1.7
COc1ccc(C(=O)CCN2CCc3cc(OC)c(OC)cc3C2)cc1,2.0%,-4,3.9,-7,15,-2.7
Cc1cccc(NC(=O)CN(C)S(=O)(=O)c2ccc3c(c2)c(=O)n(C)c(=O)n3C)c1C,-0.5%,.,0.1,.,-2,.
CC(=O)NC(C)c1ccc(Cl)c(Cl)c1 (centres undefined),.,19,0.1,43,0,-3.0
O=C1COCCOCCOCC(=O)NCCN1,-0.6%,31,0.1,4,10,3.3
CC1(C(=O)NCc2ccco2)Cc2c(-c3ccc4c(c3)OCO4)ccnc2O1 (centres undefined),3.9%,-9,-1.4,-8,.,-5.5
CC(=O)Nc1ccc(NC(=O)COC(=O)[C@@H](NC(=O)c2ccc(F)cc2)C(C)C)cc1,1.9%,-4,-0.3,0,4,2.0
Cc1ccc(NC(=O)Nc2nnc([C@H]3C[C@H](O)[C@@H](CO)O3)s2)cc1,1.0%,11,-0.2,-16,.,-3.4
COc1cc2c(cc1NC(=O)/C=C/c1cc(OC)c(OC)c(OC)c1)oc1ccccc12,2.7%,5,1.9,-5,18,11
O=C(CN1CCCC1)N1CCN(c2ccccc2)CC1,-0.4%,0,1.4,9,19,2.2
NC(=O)c1ncc(C(F)(F)F)cc1Oc1ccc(C(F)(F)F)cc1,2.3%,3,-0.6,-2,-23,-5.6
Cn1c(=N)c(S(=O)(=O)c2ccc(F)cc2)cc2c(=O)n3ccccc3nc21,-0.2%,-11,0.9,-15,22,-1.7

# An excerpt from above in order of number of heavy atoms, smallest number first.
SMILES,PINK1 modulator,Six1-Eya2 inh,TRPML1 agonist,CtBP-E1A blk,TRPML1 inh,D2 ag
O=C(CN1CCCC1)N1CCN(c2ccccc2)CC1,-0.4%,0,1.4,9,19,2.2
Cn1c(=N)c(S(=O)(=O)c2ccc(F)cc2)cc2c(=O)n3ccccc3nc21,-0.2%,-11,0.9,-15,22,-1.7
Cc1cccc(NC(=O)CN(C)S(=O)(=O)c2ccc3c(c2)c(=O)n(C)c(=O)n3C)c1C,-0.5%,.,0.1,.,-2,.
O=C(c1ccccc1F)N(Cc1cccnc1)Cc1cc2cc3c(cc2[nH]c1=O)OCCO3,0.2%,1,-0.2,-22,-5,-1.7

# (more compounds)
SMILES,PINK1 modulator,Six1-Eya2 inh,TRPML1 agonist,CtBP-E1A blk,TRPML1 inh,D2 ag
COC(=O)Cn1c(=NC(=O)c2cccc(OC)c2)sc2cc(OC)ccc21,5.7%,3,0.6,-3,-2,-1.0
Cc1ccc(NC(=O)C2=CC(c3ccc(C)cc3)=NS(=O)(=O)N2C)cc1,?,-16,-0.6,-7,2,-5.6
Cn1c(SCC(=O)N/N=C/c2ccncc2)nc2ccccc21,1.9%,3,-0.7,-11,15,-3.4
O=C1CC2(CCN(C(=O)c3cccc([N+](=O)[O-])c3)CC2)Oc2ccccc21,1.0%,-1,-0.3,7,3,1.9
C/C(=C\c1ccccc1)C(=O)NCCN1CCOCC1,0.0%,-3,-0.1,.,10,-4.6
CCCCCCCCNC(C)C(O)c1ccc(SC(C)C)cc1 (centres undefined),-1.1%,7,-0.1,-1,0,-2.3&-1.9
COc1ccc(C2SCCN2S(=O)(=O)c2ccc(F)cc2)cc1OC (centres undefined),?,-1,1.1,1,38,-0.2
CCOc1ccccc1NC(=O)CN1C(=O)CC(c2ccc(C)c(C)c2)=Nc2ccccc21,0.2%,.,2.4,.,-7,.
CCN(CC)c1ccc2cc(C(C)=O)c(=O)oc2c1,-0.3%,27,72*,22,0,-4.5
COc1cccc(NC(=S)Nc2ccc(O)cc2)c1,-2.5%,-3,2.8,0,-3,?
O=C(NCc1ccccc1)c1ccc(C(=O)N(C2CCCCC2)C2CCCCC2)cc1,-3.6%[38.3 µM],-7,119*,-10,?,-1.8
CC(C)CCNC(=O)CCSCCC(=O)NCCC(C)C,1.4%,0,-0.5,2,-14,-0.6
COCCCNC(=O)COc1cc2c(c3oc(=O)c(C)c(C)c13)CCC(C)(C)O2,4.3%,-6,0.9,-10,2,-1.3
CSc1cccc(NC(=O)c2nnn(CC(=O)Nc3cc(C)cc(C)c3)c2N)c1,2.1%,-1,0.3,3,34,-1.2
CCOC(=O)C(C)NC(=O)c1cc2c(=O)[nH]c3ccc(C)cc3c2s1 (centres undefined),5.4%,.,-0.2,.,4,.
C#CCOCCOCCOCCNc1nc(N2CCN(C(=O)[C@H](CO)n3cc([C@@H](N)C(C)C)nn3)CC2)nc(N2CCN(C(=O)[C@H](CO)n3cc([C@@H](N)C(C)C)nn3)CC2)n1,0.9%,-11,2.7,-9,19,-3.0
COc1ccc2c3c(c(=O)oc2c1OCC(=O)C(C)(C)C)CCCC3,-1.5%,-4,0.8,1,-13,-3.3
COc1ccc(NC(=O)C2(C)CCN2CCOc2ccccc2)cc1OC (centres undefined),3.6%,-3,-1.5,-3,.,7.7
O=c1c2ccccc2n2c(-c3ccc(C(F)(F)F)cc3)nnc2n1Cc1ccccc1,5.9%,0,1.9,-7,53,-0.3
CCOc1ccc(C(=O)c2cn(CC(=O)Nc3ccc(C)c(C)c3)c3ccc(OCC)cc3c2=O)cc1,1.6%,.,1.1,.,20,.
CCOC(=O)CSc1nnc(Cc2cc(=O)[nH]c(=O)[nH]2)n1-c1cccc(OC)c1,1.5%,4,2.1,8,-6,-1.9
Cc1ccc(NC(=O)c2nc[nH]c2C(=O)N(C)Cc2ccccc2)cc1,6.1%,-9,1.6,.,-8,1.3
Cc1ccc2nc(Cc3ccc(N)cc3)oc2c1,2.1%,-4,2.3,-7,-2,-0.7
CCC1Oc2ccc(C)cc2N(CC(=O)NCCCN2CCCCC2C)C1=O (centres undefined),-0.7%,5,-0.1,0,-10,-3.5
COc1ccc(S(=O)(=O)N(C(=O)C(C)C)c2ccc3oc(=O)sc3c2)cc1,-0.5%[38.3 µM],-13,-0.4,-7,-9,-2.2
CCOC(=O)Nc1ccc2c(CN3CCN(S(=O)(=O)c4ccc(C(C)C)cc4)CC3)cc(=O)oc2c1,3.9%,-2,-0.2,8,10,-2.3
COc1ccc(NC(=O)Nc2cccc3c2O[C@@H](CN(C)S(=O)(=O)c2cn(C)cn2)[C@@H](C)CN([C@H](C)CO)C3=O)cc1,2.3%,-1,0.1,0,-10,-2.1
Cc1cc(NS(=O)(=O)c2ccc(NC(=O)/C=C/c3c(F)cccc3Cl)cc2)nc(C)n1,-1.2%,-12,-0.2,-16,12,-4.5
O=C(CSc1ccc(-c2cccc([N+](=O)[O-])c2)nn1)NCc1ccccc1,4.1%,-1,2.7,-3,28,1.7
CN(c1ccc(OCC(=O)N2CCN(c3ccc(F)cc3)CC2)cc1)S(=O)(=O)c1cccs1,-0.3%,-3,1.7,-7,13,-0.7
COc1ccc(OC)c(NC(=O)c2cnc3n(c2=O)CCS3)c1,?,-3,-0.3,2,11,-1.8
COc1ccc(CCN2CC(O)=C(c3nc4ccccc4c(=O)[nH]3)C2=N)cc1OC,8.9%[38.3 µM],-5,0.7,-14,-3,-1.7
CC(=O)c1ccc(NC2c3ncccc3C(=O)N2Cc2ccc(F)cc2)cc1 (centres undefined),?,-2,0.2,-25,1,-1.1
O=C(N=Nc1c(O)[nH]c2ccccc12)c1ccco1,1.0%,-15,-0.5,.,29,-0.2
